CBX7 AlphaScr – inhibitors of human CBX7 binding to H3K27me3 peptide; O95931; AlphaScreen His6-CBX7 / biotin-H3K27me3 peptide binding; stronger effect = lower value; normalised signal (fraction of DMSO) (test concentration not listed); 66,000 tested, 1.1% active; AID 1224903; in the data active = normalised signal below about 0.5;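 also: 100 nL library stock added to about 20 µL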
Target sequence (O95931 whole entry, looked up): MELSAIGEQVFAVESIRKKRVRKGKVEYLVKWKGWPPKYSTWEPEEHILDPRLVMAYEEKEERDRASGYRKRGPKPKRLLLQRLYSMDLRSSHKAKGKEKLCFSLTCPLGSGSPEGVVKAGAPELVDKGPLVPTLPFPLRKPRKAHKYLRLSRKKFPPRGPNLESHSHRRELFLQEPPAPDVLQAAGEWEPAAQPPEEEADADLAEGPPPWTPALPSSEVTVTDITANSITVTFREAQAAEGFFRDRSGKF
CBX7 AlphaScr z-score – second read-out of CBX7 AlphaScr, no call of its own (marks repeat the call); z-score; measured here: z-score of CBX7 signal; some inactives read as strong as hits; reference of the scale not given here;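 same signal on another scale; lower means less binding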
Starred values were filed as active, the others as inactive.

SMILES | CBX7 AlphaScr | CBX7 AlphaScr z-score
CCOc1ccccc1C(=O)NCCc1cc2ccc(OC)cc2[nH]c1=O | 0.99 | -0.4
CCOC(=O)c1cnc2ccc(OCC)cc2c1Nc1ccc(OCC)cc1 | 1.1 | 0.91
COCCN(CCOC)Cc1c(C)[nH]c2ccccc2c1=O | 1.1 | 1.1
CC1CCCCN1C(=O)CSc1nnc(-c2ccc(Cl)cc2)o1 (stereo not drawn) | 0.93 | -0.16
CC(=O)Nc1cc(-c2nn3c(C)nnc3s2)ccc1C | 1 | 0.18
Cc1ccc(C2CC(=O)Nc3cc4c(cc32)OCCO4)cc1 (stereo not drawn) | 1.1 | 0.45
CCCN(CCC)CCCNC(=O)c1cnc(N2CCN(c3ncccn3)CC2)c2ccccc12 | 1.1 | 2.2
CCCOc1cccc(C(=O)Nc2nc3ccc(OC)cc3s2)c1 | 1.1 | 2.1
CCOC(=O)N1CCC(Nc2c(Nc3cccc(OC)c3)c(=O)c2=O)CC1 | 1 | 0.54
CCCCCCCNC(=O)CN1C(=O)CSc2ccc(S(=O)(=O)N(CCC)CCC)cc21 | 1 | 1.7
Cc1ccc(NC(=O)C2CCCN(S(=O)(=O)c3cccc4cccnc34)C2)c(Br)c1 (stereo not drawn) | 0.94 | -0.9
O=C(NCc1ccc(F)cc1)c1cc(-c2cccc(O)c2)on1 | 1 | 0.55
CCN(Cc1ccccc1)S(=O)(=O)c1ccc2c(c1)CCN2C(=O)C1CCC1 | 1 | 0.54
COc1ccc(-n2cnc3cc(C(=O)NCCN4CCOCC4)ccc32)cc1 | 0.86 | -1.8
CCOC(=O)c1cccc(NC(=O)c2ccccn2)c1 | 1.1 | 3

Random excerpt: two entries already listed.
SMILES | CBX7 AlphaScr | CBX7 AlphaScr z-score
CCN(Cc1ccccc1)S(=O)(=O)c1ccc2c(c1)CCN2C(=O)C1CCC1 | 1 | 0.54
COCCN(CCOC)Cc1c(C)[nH]c2ccccc2c1=O | 1.1 | 1.1

Rewritten as tab-separated lines: 15 of the compounds above
Structure	CBX7 AlphaScr	CBX7 AlphaScr z-score
CCOc1ccccc1C(=O)NCCc1cc2ccc(OC)cc2[nH]c1=O	0.99	-0.4
CCOC(=O)c1cnc2ccc(OCC)cc2c1Nc1ccc(OCC)cc1	1.1	0.91
COCCN(CCOC)Cc1c(C)[nH]c2ccccc2c1=O	1.1	1.1
CC1CCCCN1C(=O)CSc1nnc(-c2ccc(Cl)cc2)o1 (stereo not drawn)	0.93	-0.16
CC(=O)Nc1cc(-c2nn3c(C)nnc3s2)ccc1C	1	0.18
Cc1ccc(C2CC(=O)Nc3cc4c(cc32)OCCO4)cc1 (stereo not drawn)	1.1	0.45
CCCN(CCC)CCCNC(=O)c1cnc(N2CCN(c3ncccn3)CC2)c2ccccc12	1.1	2.2
CCCOc1cccc(C(=O)Nc2nc3ccc(OC)cc3s2)c1	1.1	2.1
CCOC(=O)N1CCC(Nc2c(Nc3cccc(OC)c3)c(=O)c2=O)CC1	1	0.54
CCCCCCCNC(=O)CN1C(=O)CSc2ccc(S(=O)(=O)N(CCC)CCC)cc21	1	1.7
Cc1ccc(NC(=O)C2CCCN(S(=O)(=O)c3cccc4cccnc34)C2)c(Br)c1 (stereo not drawn)	0.94	-0.9
O=C(NCc1ccc(F)cc1)c1cc(-c2cccc(O)c2)on1	1	0.55
CCN(Cc1ccccc1)S(=O)(=O)c1ccc2c(c1)CCN2C(=O)C1CCC1	1	0.54
COc1ccc(-n2cnc3cc(C(=O)NCCN4CCOCC4)ccc32)cc1	0.86	-1.8
CCOC(=O)c1cccc(NC(=O)c2ccccn2)c1	1.1	3

(next part)
SMILES | CBX7 AlphaScr | CBX7 AlphaScr z-score
Cc1noc(C)c1S(=O)(=O)Nc1ccc(F)cc1 | 0.96 | -0.99
CCOC(=O)c1cc(-c2ccccc2)n(-c2cccc(C(=O)NC3CCCC3)c2)c1C | 0.94 | -0.61
CCOC(=O)c1c(NC(=O)CN2CCCCC2)sc2c1CCCC2=O | 0.99 | -0.0059
CCOc1ccc(N(CC)C(=O)CCc2nc(-c3ccc(C)cc3)no2)cc1 | 1.1 | 2.3
O=C(Nc1ccccc1C(=O)N1CCCCC1)c1cccc(S(=O)(=O)N2CCCCCC2)c1 | 0.97 | -0.73
COc1ccc(Cc2noc(-c3ccncc3)n2)cc1 | 1.1 | 2.3
COCc1cc(=O)[nH]c(Nc2nc(C)c3cc(C)cc(C)c3n2)n1 | 0.93 | -3.2
Cc1ccc2cc(CCNS(=O)(=O)c3ccc(Br)cc3)c(=O)[nH]c2c1C | 1 | 0.55
CC1(C)OC2OC(C(=O)Nc3cccc4ccccc34)C3OC(C)(C)OC3C2O1 (stereo not drawn) | 1.1 | 1.1
CCN1CCN(C2CC(=O)N(c3ccc(F)cc3)C2=O)CC1 (stereo not drawn) | 1.1 | 1
CCOc1ccc(CC(=O)Nc2sc3c(c2C(=O)OC)CCCC3)cc1OCC | 1.4 | 3.4
CCCCCCC(O)(CCN1CCCCC1)c1ccccc1 (stereo not drawn) | 1.1 | 1.5
Cc1nc(=O)c(-c2ccccc2)c(C)n1-c1ccccc1C(=O)O | 0.97 | -0.83
CN(CC(=O)NCc1ccccc1Cl)S(=O)(=O)c1ccc2c(c1)n(C)c(=O)c(=O)n2C | 0.97 | -0.31
CCOc1ccc(-n2cc(-c3ccc4c(c3)OCO4)[nH]c2=O)cc1 | 0.93 | -0.094
N#Cc1nc(COc2ccc(Cl)cc2)oc1N1CCC(C(N)=O)CC1 | 0.96 | -1.8
Cc1c(C(=O)NCCN(C)C)oc2ccc(S(=O)(=O)N3CCCC3)cc12 | 1 | -0.03
Cc1cc(=O)n2nc(N3CCC(C(=O)Nc4c(C)cccc4C)CC3)sc2n1 | 0.97 | -1.7
Cc1ccc(-n2c3c(cc(C(=O)N4CCOCC4)c2=O)C(=O)CC(C)(C)C3)cc1 | 1.1 | 0.3
Nc1nonc1-c1nc2ccccc2n1Cc1cc2c(cc1Cl)OCO2 | 1 | 0.34
CCCCN(Cc1ccccc1)S(=O)(=O)c1ccc2c(c1)CC(C)N2C(C)=O (stereo not drawn) | 0.81 | -0.75
CCOCCCNC(=O)c1ccc2c(c1)N(Cc1ccccc1Cl)C(=O)CS2 | 1 | -0.078
CCOc1cccc(C(=O)Nc2cccc(-c3nc4cc(C)cc(C)c4o3)c2C)c1 | 0.93 | -2.7
CCOC(=O)c1cnc2cc(C(F)(F)F)ccc2c1N1CCN(C)CC1 | 0.94 | -1.1
COCc1nc2ccccc2n1Cc1ccc(C(C)(C)C)cc1 | 0.7 | -5.5
CCOc1ccc(NC(=O)N(Cc2ccc(C)cc2)Cc2cccnc2)cc1 | 0.84 | -0.16
COc1ccccc1CN1C(=O)c2ccccc2C1C(=O)NC1CCCCC1 (stereo not drawn) | 0.98 | -0.8
COc1ccc(Cl)cc1NC(=O)c1c(NCc2cccs2)sc2c1CCC(C)C2 (stereo not drawn) | 0.7 | -4.2
COc1ccc(NC(=O)[C@@H](c2ccccc2)N2Cc3ccccc3C2=O)c(OC)c1 | 0.77 | -3.4
Cc1ccc(CNC(=O)CCc2nc3ccccc3n(Cc3c(F)cccc3Cl)c2=O)cc1 | 1 | -0.014
COc1ccc2oc(=O)c(C(=O)Nc3nc(-c4ccccc4)cs3)cc2c1 | 1.2 | 1.6
Cc1nc(C)c(-c2csc(Nc3ccc(Cl)cc3)n2)s1 | 0.59 | -8.2
Nc1cccc(-c2nc3cc(Cl)ccc3o2)c1 | 0.96 | -0.58
Cc1cccc(Cc2c(C)nc3nc(SCC(=O)NCc4ccc(F)cc4)nn3c2C)c1 | 1.1 | 0.67
COC(=O)c1ccc(OCC(O)Cn2nc(C)cc2C)cc1 (stereo not drawn) | 1 | 0.14
CCOc1ccccc1NC(=O)c1ccccc1OC | 1.1 | 2.4
Cc1cccc(NC(=O)CCc2c(C)nc3c(-c4ccccc4)c(C)nn3c2C)c1C | 0.94 | -1
Cc1[nH]c2ccc(-c3nnc(SCc4ccccc4)o3)cc2c1C | 1.1 | 0.67
O=C(Cc1c(C(=O)O)[nH]c2ccc(Cl)cc12)Nc1cccc(C(F)(F)F)c1 | 0.78 | -1.8
O=C(O)CCc1ccc(-c2ccc(Br)cc2)n1-c1ccc(F)cc1 | 1 | 0.73
COc1ccc(-c2nc(Cc3ccccc3Cl)no2)c(OC)c1 | 1.2 | 2.3
CCN(c1cccc(C)c1)C(C(=O)NC1CCCC1)c1ccc(C)cc1 (stereo not drawn) | 1 | 1.2
Cc1ccc(CN2C(=O)CSc3ccc(C(=O)NC4CCCCCCC4)cc32)cc1 | 1 | -0.065
Cc1ccc(-c2noc(CCC(=O)Nc3ccccc3N3CCN(C)CC3)n2)cc1 | 0.85 | -2.4
CC1CN(S(=O)(=O)c2ccc(C(=O)Nc3nc(-c4ccncc4)cs3)cc2)CC(C)O1 (stereo not drawn) | 0.99 | -0.23
O=C(Nc1ccc2nc(-c3cccnc3)[nH]c2c1)[C@@H](c1ccccc1)N1Cc2ccccc2C1=O | 0.89 | -3
COc1ccc(N2CCN(C(c3cccs3)C(C)NC(=O)c3ccccc3OC)CC2)cc1 (stereo not drawn) | 0.61 | -13
Cc1nc2ccccn2c1-c1csc(Nc2ccc(Br)cc2)n1 | 1 | 0.6
Cc1ccc(SCc2nc3ccccn3c2Cl)cc1 | 0.99 | -0.13
COc1ccc(C(=O)NCCc2c(C)[nH]c3c(C)cccc23)cc1OC | 0.96 | -0.95
Cn1ccnc1SCC(=O)Nc1ncccn1 | 0.77 | -3.1
CCOC(=O)CNS(=O)(=O)c1cc(-c2nnc(Nc3cccc(Cl)c3)c3ccccc23)ccc1C | 0.82 | -0.2
COc1ccccc1-c1cc2nc(C)c(CCC(=O)Nc3ccc(C)c(C)c3)c(C)n2n1 | 0.98 | -0.57
O=C(Nc1c(F)c(F)cc(F)c1F)c1cnn(-c2ccccc2)c1C1CCNCC1 | 1 | 0.83
CCCCCNC(=O)c1ccc(NC2=NC3CS(=O)(=O)CC3S2)cc1 (stereo not drawn) | 1 | 0.88
COc1ccc(N2CCN(C(=O)c3cc4ccccn4n3)CC2)cc1 | 1.1 | 1.8
Cc1ccccc1-c1nc(CS(=O)(=O)CC(=O)Nc2cccc(C(F)(F)F)c2)c(C)o1 | 1.1 | 0.93
Cc1ccc(-c2cc(C(F)(F)F)n3ncc(C(=O)N4CCCC4)c3n2)cc1 | 0.87 | -1.6
Cc1cccc(NC(=O)C(NS(=O)(=O)c2ccc3nc(C)sc3c2)C(C)C)n1 (stereo not drawn) | 0.85 | -2.3
CCOC(=O)c1cn(C(C)CO)c2c(F)c(F)c(F)cc2c1=O (stereo not drawn) | 1 | 0.011
(cont.)
SMILES | CBX7 AlphaScr | CBX7 AlphaScr z-score
CC(C)c1ccc(NC(=O)CSc2nnc(-c3cccc(Br)c3)n2-c2ccccc2)cc1 | 1.1 | 0.9
CCN1C(=O)c2ccccc2Sc2ccc(C(=O)NCCCOC(C)C)cc21 | 1 | -0.0069
CCCc1ncc(C(O)(c2ccccc2)c2cc(C)ccc2C)n1C (stereo not drawn) | 0.89 | -0.51
COc1ccc(CNC(=O)C2CCN(S(=O)(=O)c3cccc4nsnc34)CC2)cc1 | 0.96 | -1
CCCCC(=O)Nc1ccc2oc(-c3ccc(Br)c(C)c3)nc2c1 | 1 | 0.42
O=C(Nc1cccnc1)c1cc(-c2ccc(Cl)cc2)on1 | 1 | 0.33
Cc1ccc(F)cc1NC(=O)c1cn(-c2ccc(Cl)cc2)c(=O)c2ccccc12 | 1.1 | 3.4
O=C(Nc1ccc2oc(-c3cccnc3)nc2c1)c1cccc(OCc2ccccc2)c1 | 1 | 2.2
CCOC(=O)N1CCC(Nc2c(NCCCN3CCCCCC3)c(=O)c2=O)CC1 | 0.94 | -0.66
O=C1CN(C(=O)c2ccc(F)cc2)C(c2ccccc2)c2cc(F)ccc2N1 (stereo not drawn) | 1.1 | 2.4
CCC(C)(C(=O)NC1CCCC1)N(C)C(=O)c1ccc(=O)[nH]c1 (stereo not drawn) | 1.1 | 2.5
Cc1ccc(C)c(Cn2c(CNC(=O)c3ccccc3)nc3ccccc32)c1 | 1.1 | 0.62
CCOC(=O)c1cnc2c(ccc3ccccc32)c1Nc1ccc(OC)cc1 | 1 | 0.15
O=C(NCCN1CCN(c2cccc(Cl)c2)CC1)Nc1ccccc1C(F)(F)F | 1 | 0.064
Cc1ccc(C(=O)N2CC(=O)Nc3ccc(C)cc3C2c2ccc(F)cc2)cc1 (stereo not drawn) | 1.1 | 1.4
CC1(C)CC(=O)C2=C(C1)NC(=O)CC2c1cccc(F)c1 (stereo not drawn) | 0.96 | -0.49
CCCCN(C)CCCNC(=O)c1cc(Nc2ccc(OC)c(OC)c2)nc2ccccc12 | 0.74 | -3.1
O=C(NC1CCN(Cc2ccccc2)CC1)c1ccc2c(c1)NC(=O)C1CCCN21 (stereo not drawn) | 1.1 | 0.35
Cc1ccc(S(=O)(=O)Nc2ccccc2CNc2c(C)cccc2C)cc1 | 1 | 0.63
Cc1cc(Cl)ccc1OCC(=O)N(Cc1ccc(N(C)C)cc1)C1CCS(=O)(=O)C1 (stereo not drawn) | 0.92 | -0.67
Cc1cccc(-c2nc(N3CCN(c4ccccc4)CC3)c3ccccc3n2)c1 | 0.91 | -2.4
COc1ccc(N2CCN(CCCNC(=O)Nc3ccccc3C(F)(F)F)CC2)cc1 | 0.77 | -0.31
O=C(CSc1nc(-c2ccc(F)cc2)[nH]c1-c1ccc(Cl)cc1)Nc1nccs1 | 1 | 0.62
CC(CCc1ccccc1)NC(=O)C1CC(=O)Nc2ccccc21 (stereo not drawn) | 1.4 | 0.78
Cc1ccc2nc(-c3ccncc3)c(NC3CCCCC3)n2c1 | 1.1 | 0.66
CCCCNC(=O)c1ccc2c(c1)N=C(CCC)c1ccccc1S2 | 1 | 0.13
Cc1ccc(S(=O)(=O)c2nc(C(C)(C)C)oc2N2CCOCC2)cc1 | 0.92 | -1.2
CCOc1cc2[nH]c(=O)n(CCC(=O)NCCc3ccc(OC)c(OC)c3)c(=O)c2cc1OCC | 0.96 | -0.79
CC1CC(C)CN(c2nc(-c3ccccc3O)nc3ccccc23)C1 (stereo not drawn) | 1 | 0.025
CCOC(=O)N1CCc2c(sc(NCc3ccccn3)c2C(=O)Nc2cc(OC)ccc2OC)C1 | 0.8 | -10

Bioassay records deposited in PubChem BioAssay by several laboratories.

An excerpt. The share of hits here may be higher or lower than overall.
